# Assay outcomes deposited in PubChem by National Center for Advancing Translational Sciences (NCATS).
# Vaccinia Venus: vaccinia inhibition (Venus reporter). actives 0.46% (n = 330,000). Vaccinia virus Venus reporter expression, fluorescence. Potency, µM (series often up to 36.5 µM), inactives show at the top dose activity change, negative = inhibition, actives largely listed as inhibitors; active means well fitted inhibition curve with a large enough effect; inconclusive means small, poorly fitted or top-dose-only effect; inactive means no such curve, though single readings can be large or run the other way; tested in A549 cells; further: nearly all actives have a fitted effect of over 30% in size; inactives centre near -10
# Vaccinia mCherry: vaccinia inhibition (mCherry reporter); Vaccinia virus mCherry reporter infection, fluorescence; about a quarter of the inactives have no number; Potency, µM (titrated, usually from 36.5 µM), for inactives: at the highest dose activity change, negative = inhibition, usual class: inhibitors; actives 0.63% (n = 310,000); AID 720579; active = well fitted inhibition curve with a large enough effect; inconclusive = small, poorly fitted or top-dose-only effect; inactive = no such curve, though single readings can be large or run the other way; tested in A549 cells; further: nearly all actives have a fitted effect of over 35% in size; inactives centre near -10
# * = called active by the depositor; i = inactive; u = inconclusive; x = not tested or not shown; [ ] = another dose, or the depositor's remark. On the % scale 0 is the no-effect control and ±100 the full control effect; potency means the concentration at half of the fitted maximal effect.
SMILES,Vaccinia Venus,Vaccinia mCherry
CC(=O)c1sc2c(c1C)c(=O)n(-c1ccc(Cl)cc1)c(=O)n2Cc1cc(=O)n2cc(Cl)ccc2n1,-11.8%,-12.7%
COc1ccccc1N1CCN(c2ncnc3c2oc2ccccc23)CC1,u,x
CC(=NO)C1CCC2C3CCC4=CC(=NO)CCC4(C)C3C(O)CC12C (configuration not stated),-14.5%,-1.1%
CCN1C(=O)c2ccc(C(=O)Nc3c(C)cc(C)cc3C)cc2C1=O,0.4%,-23.0%
CC(=O)c1ccc(NC(=O)c2cc(S(=O)(=O)N3CCCCCC3)cn2C)cc1,3.7%,3.0%
O=C(c1ccccc1F)N1C[C@H]2C[C@@H](C1)c1cccc(=O)n1C2,-5.7%,11.7%
Cc1cccc(CN(C(=S)Nc2c(C)cccc2C)c2cccnc2)c1,-7.3%,-17.7%
CC(C(=O)N1CCCCCC1)N(c1ccc(Cl)cc1)S(C)(=O)=O (configuration not stated),-11.3%,-1.5%
Nc1c(C(=O)c2ccccc2)oc2ccccc12,-12.0%,-15.6%
CS(=O)(=O)N1CCN(c2ccc(NC(=O)COc3ccccc3)cc2)CC1,-4.9%,-7.0%
COc1ccc2oc(=N)c(C(=O)Nc3ccc(F)cc3)cc2c1,-1.4%,u
CC(=O)N=c1sc(C(C)(C)C)c(C)n1C,-16.0%,x
C=CCSc1nc2ccccc2c(=O)n1Cc1ccccc1,-13.2%,-18.6%
Cc1ccc(NC(=O)CN2C(=O)NC(C)(CC(C)C)C2=O)c(Br)c1 (configuration not stated),5.2%,-2.5%
COc1ccc(CCCc2nnc(SCC(=O)Nc3ccc(C)cc3)o2)cc1,-2.0%,-9.3%
COc1cccc(CNC(=O)C2CCC(CNS(=O)(=O)c3ccc4c(c3)CCCC(=O)N4)CC2)c1 (configuration not stated),-2.6%,-13.3%
CNS(=O)(=O)c1cccc(C(=O)OCC(=O)c2cc3ccccc3o2)c1,-15.0%,i
CSc1cnc2c(=O)[nH]c(=O)n(C)c2n1,-6.0%,1.9%
Nc1c(C(=O)c2ccc(F)cc2)sc(Nc2ccccc2F)c1S(=O)(=O)c1ccc(Br)cc1,-26.1%,-6.3%
COc1c(N2CCN(C(=S)Nc3ccccc3F)C(C)C2)c(F)cc2c(=O)c(C(=O)O)cn(C3CC3)c12 (configuration not stated),-15.9%,-3.3%
Clc1ccc2nc[nH]c2c1,-7.2%,i
CN(Cc1ccccc1)S(=O)(=O)c1ccc(S(=O)(=O)N(Cc2ccc(F)cc2)C2CCCC2)cc1,-9.0%,-12.8%
O=C(C[n+]1ccc(C(=O)NCc2ccccc2)cc1)c1ccc(Cl)cc1,-21.7%,-3.5%
N#Cc1ccc(-c2csc(NC(=O)C3CC3)n2)cc1,4.5%,i
COc1ccc(N2CCN(c3oc(-c4ccc(COc5cccc(C)c5)o4)nc3C#N)CC2)cc1,-1.4%,-12.5%
CC(=O)Nc1ccc(NC(=O)C(=O)NCC(c2ccco2)N2CCc3ccccc3C2)cc1 (configuration not stated),u,-26.8%
N#CC(C#N)=Cc1cc2ccccc2nc1N1CCOCC1,-5.2%,-16.6%
NCC(=O)NCC(=O)NC[C@H]1O[C@@H](n2cnc3c(N)ncnc32)[C@H](O)[C@@H]1O,-5.0%,i
CCOC(=O)CNC(=O)CSc1ncnc2c1cnn2Cc1ccccc1,-12.1%,-13.1%
CCOC(=O)/C(C)=N/Nc1nc(-c2ccc(NC(C)=O)cc2)cs1,11.3%,-28.5%
COc1cc2c(cc1OC)CN(C(=O)c1ccc([N+](=O)[O-])o1)CC2,-24.1%,-14.8%
CCOC(=O)c1ccc2nc(NC(=O)c3cccs3)sc2c1,-27.1%,u
Cc1ccc(S(=O)(=O)CCC(=O)NCc2ccccc2F)cc1,-1.8%,-9.3%
COC(=O)c1cc(OC)c(OC)cc1N1C(=O)CC(C)(C)CC1=O,-8.0%,-2.7%
O=C1c2ccccc2CN1Cc1ccccc1,-12.7%,-0.1%
O=C(Nc1ccccc1)c1ccc(OC(=O)c2cc3ccccc3o2)cc1,-8.6%,-14.3%
O=C(Oc1ccc(Br)cc1C(=S)N1CCCC1)c1ccccc1Cl,-21.4%,u
CCC(=O)NC(NCC1CCCO1)C(Cl)(Cl)Cl (configuration not stated),-5.5%,x
Cc1ccc(-n2ncc(C(=O)Nc3ccc4c(c3)OCO4)c2C2CCN(C(=O)OC(C)(C)C)CC2)c(C)c1,-4.9%,-13.8%
COc1ccc(NC(=S)N/N=C/c2ccc(F)cc2)cc1OC,-7.6%,-5.0%
O=S(=O)(NC1CC2CCC1C2)c1ccc(Br)s1 (configuration not stated),-2.4%,-10.9%
Cc1ccc2c(c1)-c1c(ssc1=S)C(C)(C)N2C(=O)CSc1nncn1C,-25.6%,x
CCc1cc(=O)oc2cc(OC3CCCCC3=O)ccc12 (configuration not stated),1.1%,0.9%
O=C(NCc1ccco1)c1cnn2c1NC(c1ccc(Br)cc1)CC2C(F)(F)F (configuration not stated),-11.6%,-20.0%
Cc1ccccc1Cn1c2ccccc2c2cnn(CC(=O)NCCc3ccccc3)c(=O)c21,-14.8%,-21.6%
O=C(CSCc1cc(=O)c2cc(F)ccc2[nH]1)Nc1ccccc1Cl,5.3%,6.3%
Cc1ccc(NC(=O)c2cnc(SCC(=O)N3CCCc4ccccc43)n(C)c2=O)cc1,-6.3%,i
Cn1c(=O)c2cc(S(=O)(=O)NC(C(=O)NCc3cccnc3)c3ccccc3)ccc2n(C)c1=O (configuration not stated),-6.7%,i
CC1(C(=O)NS(=O)(=O)c2ccccc2OC(F)(F)F)CCN1C(=O)c1ccco1 (configuration not stated),5.6%,i
COc1ccc(OC)c(N(CC(=O)NCCc2ccc(OC)c(OC)c2)S(=O)(=O)c2ccccc2)c1,7.9%,2.5%
CCN1CCN(C(=O)C2CC(c3ccc(F)cc3)=NO2)CC1 (configuration not stated),1.0%,-10.2%
CN1CCN(CCC(=O)N/N=C/c2cc([N+](=O)[O-])ccc2OC(F)F)CC1,-19.9%,u
Cc1nnc(SCc2cc(=O)[nH]c(Nc3nc(C)c4cc(C)c(C)cc4n3)n2)s1,-14.0%,-3.6%
Cc1ccc2c(c1)c1c(c(=O)n(-c3cccc(Cl)c3)c(=O)n1C)n2C,-5.9%,5.3%
CCN(CC)CCNC(=O)c1cc(S(=O)(=O)N2CCc3ccccc32)cn1C,-13.3%,i
CC(C)NC(=O)c1ccc2c3n(nc2c1)-c1ccc(Cl)cc1CO3,-20.3%,i
CCOc1ccc(C(=O)OCC(=O)Nc2cc(C)on2)cc1OCC,-10.4%,-5.1%
O=C(Nc1ccc(Cl)cc1)c1cc(Br)ccc1OCC(=O)N1CCOCC1,-7.2%,-13.6%
Cc1ccc(C)c(SCC(=O)Nc2nnc(-c3ccccc3)o2)c1,-3.2%,-11.0%
COc1ccc(S(=O)(=O)Nc2cccc3c2O[C@H](CN(C)S(=O)(=O)c2ccc(Cl)cc2)[C@H](C)CN([C@H](C)CO)C3=O)cc1,u,-15.6%
# More records.
SMILES,Vaccinia Venus,Vaccinia mCherry
CO/N=C/NC(=O)c1ccc([N+](=O)[O-])c(CS(=O)(=O)c2ccc(Cl)cc2)c1,-13.5%,-22.6%
O=C(c1cccc2ccccc12)N1CCN(CC2CC=CCC2)CC1 (configuration not stated),-21.6%,-23.3%
CCOC(=O)C1CCN(C(=O)/C=C/c2cc(OC)c(OC)c(OC)c2)CC1,-3.7%,-8.3%
O=C(CCn1c2c(c3ccccc31)CCCC2)NNC(=O)c1ccc(Cl)c([N+](=O)[O-])c1,-2.3%,-12.6%
CC(=O)Nc1ccc(S(=O)(=O)N2CCC(NC(=O)C(Cc3cccn3C)NC(C)=O)CC2)cc1 (configuration not stated),-1.2%,-13.3%
O=C(OC1CCCCC1=O)c1cc(S(=O)(=O)N2CCOCC2)ccc1F (configuration not stated),-9.9%,-10.3%
CCC(=O)Nc1sc(Cc2ccccc2)c(C)c1C(N)=O,-16.6%,u
Nc1ccc(S(=O)(=O)c2ccc(Cl)cc2)cc1,-9.7%,u
O=S(=O)(Nc1ncccn1)c1ccc(NC(=S)Nc2ccccc2)cc1,-18.2%,-11.4%
S=C(NCc1cccnc1)Nc1ccc2c(c1)OCO2,0.9%,i
Cc1ccc(NC(=O)Cn2c(=O)c3cc(Cl)ccc3n3nncc23)cc1,-16.8%,-11.7%
C[C@@H]1CN([C@@H](C)CO)C(=O)CCCn2cc(nn2)CO[C@H]1CN(C)S(=O)(=O)c1cccs1,-2.1%,i
O=C(O)c1ccc(NS(=O)(=O)/C=C/c2ccccc2)cc1O,-4.2%,-4.5%
CC(C)(C)NC(=O)N1CCC(C(=O)O)CC1,-3.0%,-4.5%
O=C(O)c1ccc(NCc2nc3cc4ccccc4cc3[nH]2)cc1,-3.7%,i
COC(=O)c1c(NC(=O)CC2SC(N)=NC2=O)sc2c1CCC(C)C2 (configuration not stated),-21.4%,-19.8%
CCOC(=O)Nc1ccc2c3c(cccc13)-c1ccccc1-2,-18.2%,-28.8%
C1CCC(OCCN2CCN(CCOC3CCCCC3)CC2)CC1,2.1%,-3.4%
CC(NC(=O)c1ccccc1)C(=O)OCC(=O)c1ccc(Br)cc1 (configuration not stated),-4.3%,i
Cc1cc(NC(=O)CCC2CCCC2)no1,-10.1%,-13.3%
CCCCCCN(CCCCCC)C(=O)Cc1c(-c2ccc(Cl)cc2)[nH]c2ccc(Cl)cc12,-3.6%,-7.3%
CN(C)C1=NC[C@H](Cc2ccccc2)N1CCCC1CCCCC1,-20.6%,u
O=C(O)COc1ccc(Cl)cc1CO,-6.5%,-2.2%
COCc1cc(C)nc(SCc2ccc(Br)cc2)c1C#N,1.6%[7.34 µM],-4.2%[7.34 µM]

# Quoted from the results shown for reference:
SMILES,Vaccinia Venus,Vaccinia mCherry
C1CCC(OCCN2CCN(CCOC3CCCCC3)CC2)CC1,2.1%,-3.4%
CC(NC(=O)c1ccccc1)C(=O)OCC(=O)c1ccc(Br)cc1 (configuration not stated),-4.3%,i
Cc1cc(NC(=O)CCC2CCCC2)no1,-10.1%,-13.3%
CCCCCCN(CCCCCC)C(=O)Cc1c(-c2ccc(Cl)cc2)[nH]c2ccc(Cl)cc12,-3.6%,-7.3%
CN(C)C1=NC[C@H](Cc2ccccc2)N1CCCC1CCCCC1,-20.6%,u
O=C(O)COc1ccc(Cl)cc1CO,-6.5%,-2.2%
COCc1cc(C)nc(SCc2ccc(Br)cc2)c1C#N,1.6%[7.34 µM],-4.2%[7.34 µM]

# Going on with the list.
SMILES,Vaccinia Venus,Vaccinia mCherry
NC(Cc1ccc(Cl)cc1)c1csc(Nc2ccc(-c3ccccc3)nn2)n1 (configuration not stated),-27.3%,u
Cc1cccc(NNC(N)=S)c1C,-12.6%,u
CC1(C)Cc2c(sc3nnn(Cc4ccccc4)c(=O)c23)CO1,-17.9%,-6.1%
CCC(=O)Nc1cccc(NC(=O)CSc2nnc(C(C)C)n2CC)c1,0.9%,-3.2%
CCCCC(=O)Nc1ccc(N2CCN(C(=O)c3ccco3)CC2)cc1,-12.8%,-2.3%
Cc1ccc(-n2nc(C)c(C(C)(O)C(F)(F)F)c2N)cc1 (configuration not stated),-0.9%,-9.7%
COc1ccc2[nH]c(=O)c(CN(C(C)=O)c3ccc(C)cc3C)cc2c1,5.3%,-8.8%
Cc1c(C(=O)OC2CCCCC2)[nH]c2c1C(=O)CC(c1ccccc1)C2 (configuration not stated),u,u
CCn1nnnc1SCC(=O)Nc1ccc(OCc2ccccc2)cc1,1.7%,-10.9%
Cc1ccc(C(=O)N2CCC(C(=O)NCc3ccco3)CC2)cc1,3.1%,-3.0%
CSc1ccc(C(=O)C2CCCN(C(=O)Cc3nonc3C)C2)cc1 (configuration not stated),-12.5%,i
CN(C)CCNC(=O)c1cccc(-c2cnc3c(NC=O)cc(-c4cc(F)c(F)c(F)c4)cn23)c1,u,-15.8%
CCOC(=O)c1c(NC(=O)CN2C(=O)NC3(CCC(C)CC3)C2=O)sc(C(=O)N(C)C)c1C (configuration not stated),-16.4%,i
Cc1ccc(NC(=O)COc2coc(CN3CCc4ccccc43)cc2=O)cc1Cl,8.7%,-20.0%
CSc1ncc(Cl)c(C(=O)N(Cc2ccc(C)cc2)C2CCS(=O)(=O)C2)n1 (configuration not stated),7.1%,-8.7%
Oc1ccccc1C1=Nc2nc3ccccc3n2C(c2ccccc2)C1 (configuration not stated),-25.0%,x
O=C(NCC(F)(F)F)c1ccc2sc([C@H]3C[C@H](O)[C@@H](CO)O3)nc2c1,1.0%,32.3%[activator]
CCc1ccc(NC(=O)CCn2c(=O)oc3ccccc32)cc1,-19.7%,-14.9%
COc1ccc(Cc2cc(NCc3ccccc3)c3ncn(C(C)C)c3c2)cc1,u,u
CC1NC(=O)c2cc3ccccc3cc2-n2c1nc1ccc(F)cc1c2=O (configuration not stated),-9.6%,u
N#C/C(=C\c1cccnc1)c1ccccc1[N+](=O)[O-],-16.8%,u
O=C(CCc1ccccc1)Nc1ccc2c(c1)OCO2,-12.3%,i
CCOC(=O)C1=CC[C@H]2c3c(c4ccccc4n3C)C(=O)C1N2C,-5.8%,i

# An excerpt of these results, as tab-separated lines.
Structure	Vaccinia Venus	Vaccinia mCherry
O=C(CCc1ccccc1)Nc1ccc2c(c1)OCO2	-12.3%	i
CCc1ccc(NC(=O)CCn2c(=O)oc3ccccc32)cc1	-19.7%	-14.9%

# Pulled one by one from above (2):
SMILES,Vaccinia Venus,Vaccinia mCherry
CC1NC(=O)c2cc3ccccc3cc2-n2c1nc1ccc(F)cc1c2=O (configuration not stated),-9.6%,u
Cc1ccc(NC(=O)COc2coc(CN3CCc4ccccc43)cc2=O)cc1Cl,8.7%,-20.0%
